Screening results as filed in PubChem BioAssay.
Beta cell apopt: blocks beta cell apoptosis. INS-1E cytokine-induced death, ATP luminescence, 48 h; percent of positive-control rescue, neutral wells zero. protection from apoptosis, % (test concentration not listed). hit rate 0.8% among 300,000;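 active = all replicates at 75% or more, or half of them and the mean; inconclusive = half reach 75% but not the mean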;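 note: 0% = cytokine-treated negative control wells and 100% = positive control rescue; higher means more ATP so stronger rescue from cytokine killing; wells of about 40 µL received 100 nL stock; the first replicate is given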
T cruzi repl: blocks replication of Trypanosoma cruzi; T. cruzi beta-gal in NIH3T3, luminescence, 90 h; inhibition, % (test concentration not listed); hit rate 1.4% among 300,000; AID 1885;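 active = mean inhibition across valid replicates above about 55%, limit read from the data; inconclusive = mean below that limit but half or more replicates reach it; inactive = mean below it, under half of replicates reach it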;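 note: signal also drops with host cell toxicity which is not excluded here; 0% = plate median of DMSO wells and 100% = zero luminescence signal; higher percent means less beta-gal luminescence so fewer parasites; stock transfer was 50 nL into about 50 µL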
FGF22 binding: FGF22 (human) thermal shift binding; Q9HCT0; recombinant FGF22 thermal shift, SYPRO orange fluorescence; percent of sucrose octasulfate shift, DMSO zero; calls only at 9.99 µM; hit rate 1.5% among 340,000; AID 651658;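 active = melting point raised past a set limit in the mean and every replicate; inconclusive = no clear call; three in four hits are not shown here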
Target sequence (Q9HCT0 whole entry, looked up): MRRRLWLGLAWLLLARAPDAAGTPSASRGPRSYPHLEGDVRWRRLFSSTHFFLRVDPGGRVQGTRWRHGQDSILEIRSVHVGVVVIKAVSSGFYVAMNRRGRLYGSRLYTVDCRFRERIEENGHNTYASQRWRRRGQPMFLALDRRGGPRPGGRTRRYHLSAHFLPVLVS
E coli growth: inhibitors of Escherichia coli growth; OD600, 23 h; active compounds read low; OD600 absorbance (concentration not given with the values); hit rate 0.21% among 330,000;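 active = OD600 absorbance below the run mean of sample wells minus 3.6 SD, in any replicate, cut at about 0.56 in these data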;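 note: stock transfer was 300 nL into about 60 µL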
Ecoli rRNA inh: inhibits bacterial ribosomal RNA function over humanized ribosomes. E. coli WT GFP vs humanized-ribosome RFP mutants, fluorescence, 24 h; active compounds read low; DMSO median 0, no signal -100. GFP signal change (wild-type ribosome), % (no concentration beside the values). hit rate 1.6% among 350,000;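 active = significant combined selectivity score with lowered wild-type GFP, culture density cut under 30%, mutant RFP and density less affected; inactive = any of these conditions unmet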; note: one replicate is shown; some compounds called inactive have numbers as strong as hits
UCH37 DUB inh: inhibitors of human deubiquitinating enzyme UCH37; Q9Y5K5; hit rate 0.33% among 330,000; AID 588478; purified proteasome/UCH37, Ub-AMC cleavage fluorescence; inhibition, % (concentration not given with the values);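 active = mean of two replicates above 20%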;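 note: 0% = compound-free wells with enzyme and 100% = wells lacking proteasome; stock transfer was 100 nL into about 20 µL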
Target sequence (Q9Y5K5 whole entry, looked up): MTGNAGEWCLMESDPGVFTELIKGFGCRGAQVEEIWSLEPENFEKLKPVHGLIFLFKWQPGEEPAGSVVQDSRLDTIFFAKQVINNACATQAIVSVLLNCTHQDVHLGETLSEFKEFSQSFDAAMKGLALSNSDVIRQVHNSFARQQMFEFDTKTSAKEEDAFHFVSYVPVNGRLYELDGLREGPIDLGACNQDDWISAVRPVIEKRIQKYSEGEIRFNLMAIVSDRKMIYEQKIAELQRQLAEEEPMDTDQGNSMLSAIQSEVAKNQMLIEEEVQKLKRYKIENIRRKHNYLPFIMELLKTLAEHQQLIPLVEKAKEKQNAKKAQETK
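Material: human UCH37 enzyme supplied as purified proteasome complex. Measure: % inhibition of Ub-AMC cleavage fluorescence. Medium: pH 7.4 Tris-HCl (50 mM) with ovalbumin, ATP-MgCl2, DTT. Times: 30 min preincubation with enzyme, 25 min cleavage at room temperature. Detection: AMC fluorescence intensity at 355/460 nm.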
MLL AF4-AF9 inh: inhibitors of human MLL-AF4/AF9 interaction; inhibition, % at 10 µM; hit rate 0.47% among 350,000; AlphaScreen, biotin-AF4 peptide binding to FLAG-AF9; AID 651704; P42568;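 active = every replicate reaching a set inhibition limit, whatever the replicate mean, cut at about 25% in these data; inconclusive = mean inhibition reaches that limit but some replicates miss it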;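 note: 0% = plate neutral control median and 100% = total signal loss; the record names both 10 and 1 µM as test concentration; the first replicate is given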
Target sequence (P42568 whole entry, looked up): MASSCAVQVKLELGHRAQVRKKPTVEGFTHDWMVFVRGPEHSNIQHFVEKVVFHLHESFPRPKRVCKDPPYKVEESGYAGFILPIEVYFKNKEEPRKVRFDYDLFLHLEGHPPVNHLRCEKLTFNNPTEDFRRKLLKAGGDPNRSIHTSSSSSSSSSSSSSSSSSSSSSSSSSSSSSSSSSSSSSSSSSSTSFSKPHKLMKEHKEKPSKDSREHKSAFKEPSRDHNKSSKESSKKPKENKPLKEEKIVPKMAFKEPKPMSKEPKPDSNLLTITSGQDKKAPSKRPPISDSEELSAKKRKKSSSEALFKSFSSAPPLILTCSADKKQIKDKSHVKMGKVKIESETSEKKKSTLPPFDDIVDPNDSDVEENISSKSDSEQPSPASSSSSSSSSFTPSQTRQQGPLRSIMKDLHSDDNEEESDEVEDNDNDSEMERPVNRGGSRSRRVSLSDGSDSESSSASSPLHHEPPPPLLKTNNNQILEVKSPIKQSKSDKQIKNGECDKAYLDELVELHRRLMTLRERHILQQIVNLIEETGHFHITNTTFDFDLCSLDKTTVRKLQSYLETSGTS
Bfl-1 A1 inh: inhibitors of the anti-apoptotic protein A1, read as caspase activation | MEF A1-2A-BIM cells, Caspase-Glo 3/7 luminescence, 3 h; percent of clofoctol response, vehicle zero | caspase activation, % (no concentration beside the values) | hit rate 0.066% among 330,000 | AID 2462;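 active = over half of replicate activation scores above 10%, or exactly half above 10 with the replicate mean above 10; inconclusive = replicate mean below 10 yet half the replicates above 10; inactive = over half of replicates below 10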;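 note: wells of about 30 µL received 50 nL stock; many hits fall short of the cut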
Ecoli rRNA inh OD600: also measured in Ecoli rRNA inh; calls as there; OD600 change, %; measured here: OD600 growth;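 optical density of the mix in the first replicate; 0 = DMSO median and -100 = no signal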
Ecoli rRNA inh RFP: further read-out of Ecoli rRNA inh, marked with its call; RFP signal change, %; measured here: RFP humanized mutant strains;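 first replicate; 0 = DMSO median and -100 = no signal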
* hit, by the source's call; i = inactive; ? = inconclusive; / = not tested or not shown. An excerpt; count on the stated rates, not on these rows.

SMILES	Beta cell apopt	T cruzi repl	FGF22 binding	E coli growth	Ecoli rRNA inh	Ecoli rRNA inh OD600	Ecoli rRNA inh RFP	UCH37 DUB inh	MLL AF4-AF9 inh	Bfl-1 A1 inh
CC1CCCC(C)N1C(=O)COC(=O)CSc1ccc(C(N)=O)cc1[N+](=O)[O-] (centres undefined)	-3	0	i	0.69	-4	-3	-1.6	2.0	-0.8	0.2
COc1cc(NC(=O)Cn2cnc(S(=O)(=O)N3CCC(C)CC3)c2)cc(OC)c1OC	/	-11	i	0.69	3	7	-0.6	3.8	2.8	/
CN(C)S(=O)(=O)c1cccc(NC(=O)COc2cccc(C#N)c2)c1	-3	-8	i	0.69	-2	0	4.0	-0.9	7.4	-0.7
CN1CCN(c2ccc(S(=O)(=O)N3CCCCC3)cc2NC(=O)COc2cccc(Cl)c2)CC1	5	66*	i	0.66	-20	-28	-0.4	-1.4	16	-0.6
OC[C@H]1NC[C@@H](O)[C@@H]1O	-3	/	i	/	/	/	/	1.9	-3.0	-0.4
Cc1ccc(C)c(C(=O)NC(C)CCc2ccccc2)c1 (centres undefined)	-15	9	/	0.68	18	12	0.7	0.5	-1.4	0.0
CCOC(=O)CSC1=C(C#N)C(=O)NC(c2ccc(OC)cc2)S1 (centres undefined)	-8	-6	/	0.71	/	/	/	9.8	/	0.2
COc1cccc(CNC(=O)c2nnn(CC(=O)Nc3ccc(Br)cc3)c2N)c1	14	11	i	0.73	5	12	-0.8	2.7	-1.1	0.1
COc1ccc(Nc2nc(N)nc(CN3CCC(Cc4ccccc4)CC3)n2)cc1	-5	-17	i	0.72	3	-6	26	8.0	7.5	0.3
CCC/C(=C1/c2ccccc2C(=O)N1c1ccccc1)c1ccc2c(c1)OCCO2	-11	/	i	/	-20	-18	-4.0	/	/	-0.2
CC1=CC(=O)C(C(C)=Nc2ccccc2[N+](=O)[O-])C(=O)O1 (centres undefined)	/	/	i	0.68	9	1	-0.1	8.0	4.8	/
CSCCC1NC(=S)N(Cc2ccccc2)C1=O (centres undefined)	-4	-13	i	0.65	5	22	6.7	1.3	1.4	-0.2
O=S1(=O)N=C(N2CCN(Cc3ccccc3)CC2)c2ccccc21	-5	7	/	0.73	/	/	/	2.8	/	0.4
OC(c1nc2ccc(F)cc2[nH]1)C(O)c1nc2ccc(F)cc2[nH]1 (centres undefined)	-1	1	i	0.68	13	17	0.5	1.5	2.1	-0.1
COc1cc(OC)cc(C(=O)NNC(=S)NCc2ccco2)c1	-4	-2	i	/	3	-4	1.6	/	-0.8	1.4
CCOC(=O)NC1(Nc2cccc(Cl)c2)Oc2ccccc2O1	-1	/	i	0.65	-3	-8	-4.7	1.4	1.6	-0.3
CC(C)CC(=O)N1CCN(Cc2ccc3ccccc3c2)CC1	2	8	i	0.65	-7	-7	-0.8	-0.8	1.7	-0.6
CN(O)/C=C/C(=O)c1ccc(Br)cc1	-1	10	i	0.68	-4	-1	3.5	1.5	2.2	0.5
CCOC(=O)CCCCC(=O)c1[nH]c(=O)[nH]c1C[n+]1ccccc1	-10	-4	/	0.65	/	/	/	1.3	/	-0.8
CCCCN(CC)CCNC(=O)CN1C(=O)COc2ccc(S(=O)(=O)N3CCCC3)cc21	2	-2	/	0.72	/	/	/	1.5	/	-0.2
O=C(CNC(=O)c1ccncc1)Nc1ccc(F)c(F)c1	/	3	i	0.64	0	6	-2.7	3.0	0.0	1.7
Cc1cccc(C)c1NC(=O)CNC(=O)c1c(C)nn(C)c1Cl	?	1	i	0.71	11	4	1.1	0.9	-1.4	1.5
CC1CN(S(=O)(=O)c2cccc(C(=O)NCc3ccc4c(c3)OCO4)c2)CC(C)O1 (centres undefined)	2	-10	/	0.76	/	/	/	1.5	/	-0.2
N#Cc1ccccc1Sc1ccccc1C(=O)OCC(N)=O	-4	-26	i	0.72	7	2	8.2	4.0	-8.2	-0.9
CCC1CCc2[nH]nc(C(=O)O)c2C1 (centres undefined)	-6	-13	/	0.68	/	/	/	2.9	/	1.0
CCCCSc1nnc(-c2ccc(OC)cc2)n1C	-1	-8	/	0.68	/	/	/	-0.1	/	0.6
CC(=O)c1ccc(NC(=O)NC2CC(=O)N(c3ccc4c(c3)OCCO4)C2)cc1 (centres undefined)	/	-7	i	0.64	5	12	-1.0	2.5	0.0	0.6
NC(=O)c1ccc(/C=N/O)[n+](Cc2ccccc2)c1	-6	1	i	/	8	5	-1.3	/	-3.9	0.1
Cc1cc(/C=C(\C#N)C(=O)NCc2cccs2)c(C)n1-c1ccccc1F	5	6	/	0.7	/	/	/	-6.6	/	-1.2
Cc1ccc(C2(C)NC(=O)N(CC(=O)Nc3nc(-c4ccccn4)cs3)C2=O)cc1 (centres undefined)	/	?	i	0.66	-41	-75	-3.9	-3.4	-20	-0.1
COc1ccc(N2CCN(CCCNC(=O)Nc3ccccc3)CC2)cc1	-7	-21	/	0.7	/	/	/	2.4	/	0.1
O=C(CNC(=O)C1CCCCC1)Nc1ccc(Cl)cc1	-1	-6	/	0.7	/	/	/	0.3	/	0.5
CC(=O)N1N=C(c2cccc(Cl)c2)OC1c1cccc([N+](=O)[O-])c1 (centres undefined)	5	-11	/	0.67	/	/	/	1.7	/	0.9
O=C(N/N=C/C=C\c1cccc([N+](=O)[O-])c1)c1ccccn1	3	19	i	/	10	6	0.7	/	0.1	0.4
CCOC(=O)C1=C(CC)OC(N)=C(C#N)C1c1ccc(NC(C)=O)cc1 (centres undefined)	-1	-10	/	0.69	/	/	/	-15	/	1.5
Cc1ccc(NC(=S)NCCCN2CCOCC2)cc1	-13	24	i	0.71	3	3	4.3	3.0	-1.4	-0.7
COc1ccc([C@H]2CC(=O)C=C(c3ccc(F)cc3OCc3ccccc3)C2)cc1OC	14	/	i	/	0	8	-0.4	0.6	-2.7	-0.4
CC(=O)CC(C)=NCCN=C(C)CC(C)=O	-6	2	/	0.74	/	/	/	0.3	/	0.0
CCCC(=O)Nc1ccc2oc(-c3ccncc3)nc2c1	1	-11	/	0.67	/	/	/	-55	/	-1.2
O=C(O)/C=C/C(=O)NNC(=O)c1ccc(Cl)cc1Cl	-5	-11	i	0.71	10	8	0.3	1.1	0.8	-0.6
COCCNC(=O)C(=O)Nc1ccc(Cl)cc1C	-10	-12	i	0.66	13	10	-0.3	3.5	-1.3	-0.5
COc1ccc(OCC(=O)N2CCOCC2)cc1	4	-20	/	0.69	/	/	/	1.9	/	0.6
CCOC(=O)/C(C#N)=C/Nc1ccsc1C(C)=O	7	6	i	0.71	-7	0	-4.3	9.4	/	0.5
COc1cccc(CN(C)C(=O)c2cccc(S(=O)(=O)Nc3cccc(C)c3)c2)c1OC	/	/	i	0.67	-3	-17	2.6	0.2	2.4	/
Cc1cc(OCC(O)CN(CCO)CCO)ccc1Cl (centres undefined)	-4	-4	/	0.77	/	/	/	2.7	/	-0.1
CCNc1nc(OC)nc(N(OC)S(=O)(=O)c2ccc(C)cc2)n1	-5	-3	i	0.69	5	7	1.1	-1.2	-0.8	2.0
O=C(NCc1ccccc1Cl)c1ccc2c(=O)n(CCCN3CCCC3=O)c(=S)[nH]c2c1	/	10	/	0.69	/	/	/	3.0	/	-1.3
CC(C)C(C(=O)Nc1ccc2c(c1)OCCOCCOCCOCCO2)N1C(=O)c2ccccc2C1=O (centres undefined)	1	-12	i	0.64	4	2	0.8	1.9	0.9	-0.5
Cc1cccn2c(Nc3ccccc3)c(-c3ccccn3)nc12	78*	5	i	0.68	-43*	-33*	-4.9*	3.7	19	0.5
CC(C)C(=O)OCCN=C1NS(=O)(=O)c2ccccc21	1	-56	/	0.64	/	/	/	2.2	/	0.7
COc1cc(/C=C(/NC(=O)c2ccccc2)C(=O)Nc2ccc(O)cc2)c([N+](=O)[O-])cc1OC	-3	-1	i	0.7	8	4	34	1.7	-11	0.1
CC(=O)N1c2ccc(S(=O)(=O)NCCC(=O)Nc3ccc(F)cc3)cc2CC1C (centres undefined)	2	-2	i	0.68	8	2	4.3	2.5	-6.2	0.3
COc1ccc(NC2=NCC(=O)N2c2ccccc2F)c(OC)c1	-3	-7	/	0.7	/	/	/	0.6	/	1.5
CN(C)c1nc(Oc2ccc(N)cc2)nc(N(C)C)n1	/	11	/	0.73	/	/	/	1.1	/	0.2
Cc1ccc(CN(C(=O)c2cc(=O)c3cc(Cl)c(C)cc3o2)C2CCS(=O)(=O)C2)cc1 (centres undefined)	13	21	/	0.67	/	/	/	2.9	/	0.2
CC(C)CNc1oc(-c2ccc(F)cc2)nc1C#N	0	-1	i	0.76	-9	-24	-3.6	-32	2.8	-0.1
CCOC(=O)CNC(=O)C1(c2ccccc2)CCCC1	-2	-4	/	0.68	/	/	/	0.3	/	0.1
Cn1c(SCC(=O)N2CCc3ccccc3C2)nnc1-c1cccs1	-4	8	/	0.68	/	/	/	3.7	/	0.6
Cc1ccc(NC(=S)N2CCN(S(=O)(=O)c3c(F)cccc3F)CC2)cc1C	-11	-7	/	0.65	-9	-12	-3.5	-1.8	-10	2.0
Clc1ccc(-n2nnnc2-c2ccno2)cc1	1	-11	i	0.7	7	9	1.2	4.5	1.0	0.3
Further results follow.
SMILES	Beta cell apopt	T cruzi repl	FGF22 binding	E coli growth	Ecoli rRNA inh	Ecoli rRNA inh OD600	Ecoli rRNA inh RFP	UCH37 DUB inh	MLL AF4-AF9 inh	Bfl-1 A1 inh
Cc1ccc(C(=O)N/C(=C\c2ccco2)C(=O)NCc2cccnc2)cc1	-5	-3	/	0.63	/	/	/	7.1	/	0.2
CCn1cc(C(=O)N[C@@H](CCSC)C(=O)NCCCOC)c(=O)c2cc3c(cc21)OCO3	3	-15	i	0.66	12	17	3.5	-2.0	-0.7	-0.2
Cc1ccc(CNC(=O)c2ccc(NC(=O)CCS(=O)(=O)c3cccs3)cc2)cc1	-28	0	/	0.72	/	/	/	-0.3	/	-0.5
COc1ccc(CCNC(=O)C2CCN(C(=O)c3ccc(F)cc3)CC2)cc1	/	-1	i	0.67	3	1	2.5	0.9	3.7	0.6
O=[N+]([O-])c1ccc(O)c(C=Nc2ccc3c(c2)OCO3)c1	12	-1	i	0.66	7	1	-1.5	7.5	3.5	-0.3
Cc1cc2c(c(=O)n1Cc1ccccn1)C(C(C)C)C(C#N)=C(N)O2 (centres undefined)	-1	-15	/	0.72	/	/	/	-3.2	/	1.0
CN(CCOc1ccc(-c2ccn(S(=O)(=O)c3c(Cl)cccc3Cl)n2)cc1)c1ccccn1	-3	39	/	0.75	/	/	/	4.0	/	-0.1
COc1ccccc1NC(=O)NC1CCCCCCC1	5	/	i	0.72	11	7	3.5	2.7	-6.7	0.3
O=C(O/N=C1/CCCc2occc21)c1ccc(F)cc1	-5	-9	i	/	21	21	2.2	/	1.0	0.9
Cc1oc2c(cc(NS(=O)(=O)c3ccc(Cl)cc3)c3ccccc32)c1C(=O)O	-5	/	i	0.73	-2	-3	3.9	4.1	-2.0	-0.4
